High-throughput results from PubChem.
Rango dissoc inh = qHTS Assay for Inhibitors of RanGTP induced Rango (Ran-regulated importin-beta cargo) - Importin beta complex dissociation; Biochemical FRET Rango-importin beta, RanGTP-induced dissociation; Potency, µM (highest dose often 46.1 µM), inactives show at the highest dose activity change, negative = inhibition; actives 0.071% (n = 340,000); active means falling FRET ratio curve, often poorly fitted, with flat reads before Ran was added; inconclusive means other falling curves, or compound fluorescence or quenching; inactive means flat or rising ratio curve;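 also: potency is read from the fitted curve at half-maximal effect; % of control where 0% means no effect; nearly all actives have a fitted effect of over 45% in size; -100% = wells without RanGTP and RCC1; the record marks most hits as doubtful in a second field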
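Two FRET readings bracket the reaction: one 5 min after compound meets Rango–importin beta, another 45 min after RanGTP-RCC1 (0.6 uM Ran, 0.2 uM RCC1, 2 mM GTP) is added. Only the second defines inhibition.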
Rango complex inh = qHTS Assay for Inhibitors of Rango (Ran-regulated importin-beta cargo) - Importin beta complex formation; Potency, µM (top dose mostly 92.2 µM), without a hit: at the top dose inhibition of complex formation; Importin subunit beta-1 (Homo sapiens), Q14974; actives 0.031% (n = 340,000); Rango CFP/YFP FRET sensor + importin beta, 45 min; active = rising FRET ratio curve, often small or poorly fitted; inconclusive = mostly compound fluorescence or quenching in the first reads; inactive = flat curves in all reads;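 also: potency is read from the fitted curve at half-maximal effect; 0% = DMSO wells and 100% = buffer wells lacking importin beta; nearly all actives have a fitted effect of over 15% in size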
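FRET biosensor (snurportin 1 IBB flanked by EYFP and cerulean), 50 nM, with compound 5 min, then 0.125 microM importin beta in PBS, 1 mM DTT, 0.02% Tween-20, 0.1% BSA. CFP/YFP ratio read after 45 min at room temperature; pre-read flags interference.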
miR-21 FLuc = qHTS Assay for Modulators of miRNAs and/orActivators of miR-21; HeLa miR-21 FLuc reporter, luciferase, 48 h; Potency, µM (series often up to 38.3 µM), without a hit: at the top dose reporter change, positive = more light; 340,000 tested, under 10 active; active = well fitted rising curve with a large enough effect; inconclusive = small, poorly fitted or top-dose-only effect; inactive = no such curve, though single readings can be large or run the other way;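 also: % of control where 0% means no effect; miR-21 action dims this reporter so a rising signal means less miR-21 action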
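Compounds were titrated across several concentrations (up to approximately 40 uM) and incubated 48 hours with HeLa miR-21-FLuc reporter cells (miR-21 target sequence downstream of FLuc, endogenous miR-21). Readout was firefly luciferase luminescence after lytic detection reagent.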
GLA inh pH 4.5 = qHTS Assay for Inhibitors of Human alpha-Galactosidase at pH 4.5; Alpha-galactosidase A (Homo sapiens), P06280; purified enzyme, 4-MU-alpha-Gal fluorescence, pH 4.5; activity change, negative = inhibition, % at 105 µM; 230,000 tested, under 10 active; AID 1467, 2008; inconclusive = small, poorly fitted or top-dose-only inhibition, or a rising curve; inactive = flat fitted curve, though single readings scatter; no compound was filed as active;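 also: 0% = full activity with enzyme and -100% = basal without enzyme; dose as in the result columns while the protocol names 77 µM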
Target sequence (P06280 whole entry, looked up): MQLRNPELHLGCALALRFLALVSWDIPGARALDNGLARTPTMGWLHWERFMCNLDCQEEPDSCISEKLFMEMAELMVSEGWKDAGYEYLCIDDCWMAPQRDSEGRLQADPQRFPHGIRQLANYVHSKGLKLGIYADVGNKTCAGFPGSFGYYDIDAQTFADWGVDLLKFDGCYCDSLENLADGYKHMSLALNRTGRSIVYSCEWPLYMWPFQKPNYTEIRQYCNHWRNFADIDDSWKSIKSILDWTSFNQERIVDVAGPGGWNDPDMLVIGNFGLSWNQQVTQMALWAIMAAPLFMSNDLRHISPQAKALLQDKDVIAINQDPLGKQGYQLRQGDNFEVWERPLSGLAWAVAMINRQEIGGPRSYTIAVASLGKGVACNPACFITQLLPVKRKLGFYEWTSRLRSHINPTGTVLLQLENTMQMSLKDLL
* = called active by the depositor; ? = inconclusive; . = no result given.

cpd | molecule | Rango dissoc inh | Rango complex inh
1 | COc1ccc(NC(=O)c2cc(C)nc3ccccc23)cc1S(=O)(=O)N1CCOCC1 | 8% | 0.3%
2 | O=C(O)C1OC(Oc2c(-c3ccc(O)c(O)c3)oc3cc(O)cc(O)c3c2=O)C(O)C(O)C1O (stereo not given) | 12% | ?
3 | CCOC(=O)C1CCN(CC(=O)NC(=O)NC2CCCCC2)CC1 | -8% | -0.2%
4 | CC1(C)CC(NNCCC#N)=CC(=[N+]2CCCC2)C1 | -24% | ?
5 | CCOC(=O)N1CCN(C(=O)C2CCN(C(=O)c3cc(OC)cc(OC)c3)CC2)CC1 | -11% | -0.1%
6 | O=C(COC(=O)CNC(=O)C1CCCCC1)Nc1ccc(Cl)cn1 | 5% | 2.1%
7 | Cc1cccc(C)c1NC(=O)C1(N(Cc2ccco2)C(=O)c2ccccn2)CCCC1 | 17% | 4.2%
8 | Cc1c(C(=O)N(C)C2CCCCC2)sc2ncnc(N3CCN(c4ccccc4)CC3)c12 | -17% | 5.9%

cpd | miR-21 FLuc | GLA inh pH 4.5
1 | . | .
2 | -8% | -12
3 | -3% | -7
4 | 4% | 3
5 | 1% | -4
6 | 4% | -6
7 | -6% | 2
8 | 5% | .

Next part:
cpd | molecule | Rango dissoc inh | Rango complex inh
9 | CCCCn1c(-c2cccnc2)n[nH]c1=S | 9% | 3.7%
10 | CCOC(=O)N1CCC(NC(=O)CCS(=O)(=O)c2ccc3c(c2)CCN3C(C)=O)CC1 | -11% | 1.5%
11 | O=C(/C=C/c1ccc(O)c(O)c1)O[C@H](Cc1ccc(O)c(O)c1)C(=O)O | . | .
12 | CCOC(=O)C(=O)Nc1ccccc1C(=O)NC(C)C | -12% | -0.7%
13 | CC1=C(C(=O)N(C)C)C(c2ccc(C)s2)NC(=S)N1 (stereo not given) | -3% | -0.3%
14 | O=C(O)c1ccc(CCCc2ccccc2)cc1 | 7% | 2.5%
15 | Cc1ccc2c(c1)C1OCCC1C1N2C(=O)C2C(C(=O)O)C3C=CC21O3 (stereo not given) | -5% | -3.3%
16 | O=C(CSc1nnnn1C1CCCC1)Nc1ccc2c(c1)OCCO2 | 8% | 2.4%

cpd | miR-21 FLuc | GLA inh pH 4.5
9 | -2% | -5
10 | 2% | 4
11 | 2% | 1
12 | -1% | -7
13 | -2% | 2
14 | . | .
15 | -11% | 11
16 | -12% | 1

Single entries from above:
compound 11 | miR-21 FLuc = 2%
compound 15 | GLA inh pH 4.5 = 11
compound 9 | miR-21 FLuc = -2%
compound 12 | Rango dissoc inh = -12%

Further entries
cpd | molecule | Rango dissoc inh | Rango complex inh
17 | COC(=O)C1CCN(C(=O)N2CCOCC2)CC1 | 0% | -0.9%
18 | Cn1c(=O)c2c(ncn2CC(=O)OCC(=O)Nc2sccc2C(N)=O)n(C)c1=O | -1% | -0.4%
19 | Cc1cccc(N2C(=O)N3[C@H](c4ccc(Br)cc4)[C@@H]4C(=O)N(C(C)(C)C)C(=O)[C@@H]4[C@]3(Cc3ccc(Cl)cc3)C2=O)c1 | -7% | 0.5%
20 | Cc1ccc(N(CC(N)=O)C2SC(=O)N(Cc3cccc(C(=O)O)c3)C2=O)cc1 (stereo not given) | 7% | -1.0%
21 | O=C(COC(=O)c1ccccc1Nc1ccccc1)NCc1ccccc1Cl | -21% | ?
22 | Cc1cc(C)n2cc(CSc3ccccn3)nc2n1 | 9% | 3.4%
23 | CC(=O)N1c2ccc(S(=O)(=O)NCC3CCC(C(=O)N(C)Cc4ccccc4)CC3)cc2CC1C (stereo not given) | -18% | 6.3%
24 | CCOC(=O)C1CCN(c2c(N(C)Cc3ccco3)c(=O)c2=O)CC1 | 10% | 4.1%

cpd | miR-21 FLuc | GLA inh pH 4.5
17 | -1% | 3
18 | . | .
19 | -2% | .
20 | -7% | 1
21 | -8% | ?
22 | -8% | 4
23 | 14% | .
24 | -4% | 8

3 compounds out of the list above, arranged by the value under miR-21 FLuc, smallest number first.
cpd | molecule | Rango dissoc inh | Rango complex inh
24 | CCOC(=O)C1CCN(c2c(N(C)Cc3ccco3)c(=O)c2=O)CC1 | 10% | 4.1%
5 | CCOC(=O)N1CCN(C(=O)C2CCN(C(=O)c3cc(OC)cc(OC)c3)CC2)CC1 | -11% | -0.1%
4 | CC1(C)CC(NNCCC#N)=CC(=[N+]2CCCC2)C1 | -24% | ?

cpd | miR-21 FLuc | GLA inh pH 4.5
24 | -4% | 8
5 | 1% | -4
4 | 4% | 3

Next section.
cpd | molecule | Rango dissoc inh | Rango complex inh
25 | CCN(CC(=O)Nc1ccc2c(c1)OCCO2)C(=O)c1ccc([N+](=O)[O-])s1 | -6% | -2.3%
26 | Cc1ccc(C)c(CSc2nnc(-c3cccnc3)o2)c1 | -19% | 0.0%
27 | COC(=O)c1cc(OC)c(OC)cc1NC(=O)c1ccccc1C | 6% | -0.6%
28 | COC(=O)CSc1nnc(CNC(=O)c2ccc(S(=O)(=O)N(C)C)cc2)n1C | -1% | 2.0%
29 | COc1ccc(C(=O)COC(=O)C2CCN(S(=O)(=O)c3cccc4cccnc34)CC2)cc1 | 13% | 0.2%
30 | COc1ccc(-c2cn3c4c(sc3n2)CCCC4)cc1 | 2% | -0.1%
31 | C[C@H]1CC[C@H]2C(=O)N3[C@H](c4cccc(N5CCCC5=O)c4)[C@@H](C)CC[C@H]3C(=O)N2[C@@H]1c1cccc(N2CCCC2=O)c1 | . | .
32 | S=c1[nH]nc(-c2cc(-c3ccccc3)n[nH]2)n1/N=C/c1c(Cl)cccc1Cl | -7% | 4.8%

cpd | miR-21 FLuc | GLA inh pH 4.5
25 | . | .
26 | -20% | -4
27 | -1% | -1
28 | 1% | 5
29 | -5% | 4
30 | 1% | -4
31 | 3% | -10
32 | -30% | -10

Laid out differently: entries from further up.
Results follow in this order: Rango dissoc inh | Rango complex inh | miR-21 FLuc | GLA inh pH 4.5
[26] Cc1ccc(C)c(CSc2nnc(-c3cccnc3)o2)c1
    -19% | 0.0% | -20% | -4
[27] COC(=O)c1cc(OC)c(OC)cc1NC(=O)c1ccccc1C
    6% | -0.6% | -1% | -1
[28] COC(=O)CSc1nnc(CNC(=O)c2ccc(S(=O)(=O)N(C)C)cc2)n1C
    -1% | 2.0% | 1% | 5
[29] COc1ccc(C(=O)COC(=O)C2CCN(S(=O)(=O)c3cccc4cccnc34)CC2)cc1
    13% | 0.2% | -5% | 4
[30] COc1ccc(-c2cn3c4c(sc3n2)CCCC4)cc1
    2% | -0.1% | 1% | -4

Additional records
cpd | molecule | Rango dissoc inh | Rango complex inh
33 | O=C(CN1CCOCC1)n1c2ccccc2c2ccccc21 | 8% | -0.5%
34 | Cc1cc(S(=O)(=O)Nc2ccc(C(=O)NCC(c3ccco3)N3CCCCC3)cc2)ccc1F (stereo not given) | 6% | 2.4%
35 | c1csc(-c2nn3c(Cn4cnc5ccccc54)nnc3s2)c1 | -11% | 1.3%
36 | COc1ccc2c(c1)OC(c1ccccc1)(C(F)(F)F)NC2=O (stereo not given) | ? | -3.6%
37 | COC(=O)c1sc(NC(=O)c2c(-c3ccccc3)noc2C)nc1C | 5% | 0.8%
38 | O=C(NCCC(c1ccccc1)c1ccccc1)c1cnc2sccn2c1=O | 15% | -0.3%
39 | O=C(NNC(=O)c1cccc(Br)c1)Nc1ccc(Cl)cc1 | 2% | 5.0%
40 | CCCCNC(=O)NS(=O)(=O)c1cnccc1Sc1ccc(Cl)cc1 | -11% | -0.3%

cpd | miR-21 FLuc | GLA inh pH 4.5
33 | -4% | 5
34 | . | .
35 | -18% | 6
36 | 0% | 1
37 | 1% | .
38 | -1% | 2
39 | 1% | 6
40 | -22% | -5

The listing continues:
cpd | molecule | Rango dissoc inh | Rango complex inh
41 | Nc1cc(Oc2cccnc2)cc([N+](=O)[O-])c1 | 12% | 5.4%
42 | C[N+](C)(C)CCC(=O)N1C/C(=C/c2ccccc2)C(=O)/C(=C\c2ccccc2)C1 | 1% | 0.1%
43 | CN(C)C(=O)c1cn(-c2ccccc2)c(=O)c2ccccc12 | 1% | -0.3%
44 | Cc1csc(NC(=O)c2ccc(S(=O)(=O)N(C)c3ccccc3)cc2)n1 | -14% | 0.8%
45 | C[C@H](CO)N1C[C@H](C)[C@@H](CN(C)Cc2ccc(Oc3ccccc3)cc2)Oc2c(NC(=O)C3CC3)cccc2C1=O | 11% | -0.8%
46 | CCN1CCN(C(=S)c2ccc(OC)cc2)CC1 | 6% | 1.5%
47 | CCOC(=O)c1cc(-c2csc(-c3ccc(C(F)(F)F)cc3)n2)on1 | 13% | 1.2%
48 | CS(=O)(=O)N1c2ccccc2[C@@]2(Br)C[C@H]3C(=O)N[C@@H](Cc4ccccc4)C(=O)N3[C@@H]12 | -6% | 4.7%

cpd | miR-21 FLuc | GLA inh pH 4.5
41 | -3% | 4
42 | . | .
43 | -3% | 6
44 | 5% | 6
45 | . | .
46 | -8% | .
47 | 4% | -16
48 | . | .

(list continues)
cpd | molecule | Rango dissoc inh | Rango complex inh
49 | COc1ccccc1-c1nc2ccc(Cl)cc2c(=O)n1O | 9% | 7.1%
50 | CCOC(=O)c1cc(-c2ccc(OC)cc2)nn1-c1ccccc1C(=O)O | -2% | ?
51 | O=C(Cc1c[nH]c2ccccc12)NCc1ccco1 | 10% | 2.2%
52 | Cn1c(=O)[nH]c(=O)c2c1nc(NCCCn1ccnc1)n2CCOc1ccccc1 | 1% | 3.6%
53 | Cc1cc(NC(=O)c2cccc(Br)c2)n[nH]1 | 43% | -1.2%
54 | COc1cccc(C(=O)Oc2c(CN3CCOCC3)cc(Cl)c3cccnc23)c1 | -11% | -5.3%
55 | C/C(=N\NC(=O)c1c[nH]c2ccccc12)c1ccccn1 | 2% | ?
56 | CC1CCCC(C)N1c1ccc(S(=O)(=O)N2CCOCC2)cc1Cl (stereo not given) | 7% | -2.4%

cpd | miR-21 FLuc | GLA inh pH 4.5
49 | 6% | .
50 | 1% | 11
51 | -6% | 5
52 | -7% | 5
53 | . | .
54 | ? | 8
55 | -20% | 4
56 | 0% | .

Additional compounds
cpd | molecule | Rango dissoc inh | Rango complex inh
57 | Cc1cc(OC(=O)c2ccc(C(F)(F)F)cc2)c([N+](=O)[O-])c(=O)[nH]1 | 10% | -6.7%
58 | COc1ccc(C)cc1NC(=O)c1cc2ccccc2o1 | -5% | -0.5%
59 | CCN(CC(=O)Nc1c(C(=O)OC)[nH]c2ccc(C)cc12)c1ccc2c(c1)OCO2 | 8% | -1.7%
60 | Cc1sc2ncn(CC(=O)N3CCN(c4ccccc4F)CC3)c(=O)c2c1S(=O)(=O)N1CCOCC1 | 11% | -0.7%
61 | CC1=CC(C)(C)N2C(=O)C3(SCC(=O)N3c3ccc(O)cc3)c3cc(C)cc1c32 (stereo not given) | -3% | -0.9%
62 | Cc1nn(CC(O)Cn2cnc3c2c(=O)n(C)c(=O)n3C)c(C)c1Br (stereo not given) | -10% | 0.8%
63 | CSc1ncccc1C(=O)Nc1cccc(S(=O)(=O)N2CCCCCC2)c1 | -9% | 2.0%
64 | COc1cc(OC)cc(C(=O)Nc2ncc3c(n2)CC(C)CC3=O)c1 (stereo not given) | -1% | -0.2%

cpd | miR-21 FLuc | GLA inh pH 4.5
57 | 1% | .
58 | -36% | 2
59 | 23% | -5
60 | -2% | .
61 | 8% | 2
62 | -1% | -2
63 | . | .
64 | -10% | 5

Other results
cpd | molecule | Rango dissoc inh | Rango complex inh
65 | CS(=O)(=O)N(CC(=O)N1CCN(c2cccc(Cl)c2)CC1)C1CCCCC1 | 2% | -0.1%
66 | O=C(OCC(=O)N1CCCC1=O)c1cccc(S(=O)(=O)N2CCOCC2)c1 | 30% | 4.0%
67 | COc1cccc(C2CCCN2Cc2nc(CC3CC3)no2)c1 (stereo not given) | 1% | -4.2%
68 | CSc1nc(N(C)C)c2ccccc2n1 | -5% | -1.6%

cpd | miR-21 FLuc | GLA inh pH 4.5
65 | 3% | -9
66 | 1% | .
67 | 0% | 2
68 | -1% | 8

The list is partial; rates above refer to the full screens.
